Screening data (PubChem)
Sa growth inh = S. aureus growth inhibition at 42 and 30 °C, primary screen, LtaS inhibitor project, RN4220, two temperatures. 170,000 compounds, 0.53% hits. relative growth, % (test concentration not listed). AID 720641, 2013. OD600, 20 h, 42 °C; active compounds read low;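 active = growth at 42 °C up to 50% and 20 or more points under that at 30 °C, or under 10% at both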;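 also: 300 nL library stock went into each well; scaled to the means of positive and negative controls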
HCMV NEC inh = inhibitors of HCMV UL50-UL53 interaction, biochemical, HTRF; normalized percent inhibition; inhibition, % (test concentration not listed); 190,000 compounds, 0.15% hits; AID 1918969, 2023;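 active = both replicates at 50% or more, plus weaker picks with an unusually low signal ratio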;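 also: stock transfer was 100 nL into about 20 µL; 0% = negative control wells and 100% = wells with untagged competitor protein; inactives centre near -12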
GIV-Gai inh = inhibitors of GIV peptide binding to Galpha-i3, primary screen, biochemical, fluorescence polarization, FITC-GIV GBA peptide, rat Galphai3; 210,000 compounds, 0.42% hits; AID 1224905, 2016; Guanine nucleotide-binding protein G(i) subunit alpha-3 (Rattus norvegicus), P08753; percent of control (FP), % (no concentration beside the values); 90 min; active compounds read low; scaled: aluminum fluoride 0%, vehicle 100%;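 active = replicate mean at 85% of control or lower, very high polarization wells dropped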;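 also: wells of about 15 µL received 100 nL stock; the first replicate is given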
Target sequence (P08753 whole entry, looked up): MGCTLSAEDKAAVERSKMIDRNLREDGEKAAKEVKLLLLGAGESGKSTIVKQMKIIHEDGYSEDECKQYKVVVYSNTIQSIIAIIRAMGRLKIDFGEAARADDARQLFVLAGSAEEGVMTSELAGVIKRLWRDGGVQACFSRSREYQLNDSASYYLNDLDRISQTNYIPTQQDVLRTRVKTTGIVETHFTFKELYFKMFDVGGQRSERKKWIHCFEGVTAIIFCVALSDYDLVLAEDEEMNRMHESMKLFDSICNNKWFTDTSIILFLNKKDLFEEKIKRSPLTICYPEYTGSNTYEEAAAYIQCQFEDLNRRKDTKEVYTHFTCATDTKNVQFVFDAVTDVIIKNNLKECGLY
Sa growth inh second temp = further read-out of Sa growth inh, marked with its call; relative growth, %; measured here: growth at 30 °C;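 optical density after 20 h as mean of two plates; 100% = untreated growth and lower means inhibition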
Numbers without * were called inactive; . = not tested or not shown; & = joins results of further samples.

SMILES | Sa growth inh | Sa growth inh second temp | HCMV NEC inh | GIV-Gai inh
CC1(C)COC(c2cccn2Cc2ccc(F)cc2Cl)=N1 | 103 | 87 | -9 | 101
CC(=O)NC(=O)c1cc2cc([N+](=O)[O-])ccc2oc1=Nc1cccc2ccccc12 | . | . | -27 | 101
O=C(CN1Cc2ccccc2C1=O)N1CC=C(c2ccccc2)CC1 | 111 | 86 | -24 | 102
Cc1cccc(-c2cc(NC(=O)COc3ccccc3F)n(-c3ccccc3)n2)c1 | 90 | 88 | . | 103
Cc1ccc(NC(=O)c2oc3ccc(S(=O)(=O)N4CCCC4)cc3c2C)cc1C | 102 | 84 | . | 99
CCOc1cccc(N2C(=O)NC(=O)/C(=C\c3cc(Br)c(N4CCOCC4)o3)C2=O)c1 | . | . | -10 | 110
CCN(CC)S(=O)(=O)c1ccc(C(=O)Nc2c3c(nn2-c2ccc(Cl)cc2)CSC3)cc1 | . | . | 17 | 108
CN1CCN(C(CNC(=O)c2ccc(Cl)cc2)c2ccc3c(c2)OCO3)CC1 (stereo not given) | 114 | 90 | 5 | 103
CCOC(=O)N1CCN(C(=O)c2cccc(NC3=NC4CS(=O)(=O)CC4S3)c2)CC1 (stereo not given) | 107 | 100 | -6 | 111
CC(Oc1ccccc1)C(=O)Nc1nc2ccc(S(N)(=O)=O)cc2s1 (stereo not given) | 83 | 82 | . | 100
Cc1ccc(NC2=CC(=O)NC2)cc1 | 110 | 86 | . | 104
O=C(c1cnc2sccn2c1=O)N1CCN(c2ccc(F)cc2)CC1 | . | . | -8 | 99
O=C(O)c1cnn2c(-c3ccncc3)ccnc12 | . | . | -12 | 107
CC1CCc2nc(NCCO)nc(C(F)(F)F)c2C1 (stereo not given) | 100 | 90 | . | 98
CCc1nnc(SCC(=O)Nc2cc(OC)ccc2OC)nc1CC | 80 | 88 | . | 103
Oc1ccc(Br)cc1C1Nc2ccccc2S1 (stereo not given) | 102 | 86 | -5 | 100
Cc1cc(C(=O)NCCN2CCOCC2)on1 | . | . | -39 | 99
CCCCOC(=O)Nc1ccc(I)cc1C | 122 | 79 | -5 | 100
CCOCCCn1nnc2c(=O)[nH]c(C(=O)NCc3cccc(Cl)c3)nc21 | 86 | 81 | -4 | 110
O=S(=O)(c1ccc(Cl)cc1)N1CCC(n2cnc3cccnc32)CC1 | . | . | 6 | 100

Reprinted at random: 2 entries already listed, in no set order.
SMILES | Sa growth inh | Sa growth inh second temp | HCMV NEC inh | GIV-Gai inh
Oc1ccc(Br)cc1C1Nc2ccccc2S1 (stereo not given) | 102 | 86 | -5 | 100
Cc1ccc(NC2=CC(=O)NC2)cc1 | 110 | 86 | . | 104

More records follow:
SMILES | Sa growth inh | Sa growth inh second temp | HCMV NEC inh | GIV-Gai inh
Cc1ccc(NC(=O)CN(C)C(=O)CSc2nnc(-c3ccc4c(c3)OCO4)o2)cc1 | 92 | 95 | -5 | .
Cn1ncc(C(=O)N2CCN(c3ccc(F)cc3)CC2)c1C1CCN(C(=O)OC(C)(C)C)CC1 | 77 | 87 | . | 106
Cc1cc(NC(=O)CSC2=NC(=O)C(Cc3ccccc3)C(=O)N2)no1 (stereo not given) | . | . | 4 | 103
CCOc1ccc(CCNC(=O)c2cn(-c3cccc(OC)c3)c(=O)c3ccccc23)cc1 | 98 | 90 | . | 104
CN1CCN(c2ccc(CNC(=O)c3cc(F)cc4c3OCOC4)cc2)CC1 | 94 | 99 | -6 | 98
CC1=C(C(=O)OCC2CCCO2)C(c2ccccc2)NC(=O)N1 (stereo not given) | 85 | 113 | 12 | 90
O=C(/C=C/c1ccc(OC(F)F)cc1)OCc1ccco1 | 68 | 85 | -53 | .
O=C(NCC1CCCO1)c1cc(-c2cccnc2)nc2ccc(Cl)cc12 (stereo not given) | . | . | -58 | 119
FC(F)(F)c1cccc(N=Cc2cccnc2)c1 | 97 | 93 | -11 | 98
O=c1c2oc3ccccc3c2n(Cc2ccc(F)cc2)c(=O)n1Cc1ccco1 | 103 | 98 | . | 100
Cc1ccc(-c2nnn(CC(=O)NN)n2)cc1Cl | 91 | 91 | -12 | 102
N#Cc1ccc(C#CCOC(=O)Nc2ccc(OC(F)(F)F)cc2)cc1 | 89 | 84 | -41 | 108
CC1(C)OC(=O)C(=Cc2ccc[nH]2)C(=O)O1 | 105 | 90 | -69 | 101
CCOC(=O)c1ccccc1NC(=O)CSc1ncc(S(=O)(=O)c2ccc(OC)c(Cl)c2)c(=O)[nH]1 | . | . | -26 | 107
NCCS(=O)O | . | . | -24 | 100
COc1cc(Cl)c(C)cc1NS(=O)(=O)c1c(C)nc2sc3ccccc3n2c1=O | . | . | -22 | 111
CC(=O)NCc1c(Cl)cccc1Cl | 85 | 83 | -14 | 98
CCCn1c2ccccc2c2cnn(CC(=O)NCCN(CC)CC)c(=O)c21 | 105 | 103 | . | 107
Cc1cc(C)c2nc3sc(C(=O)N4CCOCC4)c(N)c3cc2c1 | 99 | 87 | -106 | -49*
Cc1nc2nc3c(c(N4CCN(c5ccccn5)CC4)n2n1)CCCC3 | . | . | -12 | 105
CCOC(=O)c1ccccc1NC(=O)c1cnn(-c2ccc(OC)cc2)c1C1CCN(C(=O)OC(C)(C)C)CC1 | 94 | 96 | . | 113
CCNc1cc(Nc2ccccc2OC)c([N+](=O)[O-])c2nonc12 | . | . | -29 | 106
O=C(N1CCCC1)C12CC3CCC(CC(C3)C1)C2 | 93 | 80 | -11 | 107
O=C(c1cc(C2CC2)on1)N1CCCC1 | 100 | 85 | -10&-2 | 101&104
CCOc1ccc(C(=O)NC(C(=O)Nc2ccc(S(=O)(=O)N(C)C)cc2)C(C)C)cc1 (stereo not given) | 94 | 81 | 2 | .
Cc1ccc(NC(=O)CN(C)S(=O)(=O)c2ccc3c(c2)CC(C)N3C(=O)C2CC2)c(C)c1 (stereo not given) | . | . | -17 | 108
COc1ccc(Cn2c(SCc3ccc(C(=O)NCc4cccs4)cc3)nc3ccncc32)cc1 | 109 | 97 | -7 | 96
CCOc1ccc(C2C(=O)N(C3CCCCCC3)CC(=O)N2Cc2ccc(F)cc2)cc1OC (stereo not given) | 97 | 97 | . | 106
CCn1nc(-c2ccccc2)c(-c2ccccc2)c(C(=O)Nc2ccc(S(N)(=O)=O)cc2)c1=O | 87 | 84 | -49 | 98
O=C(Nc1ccc2c(c1)OCO2)N1CCC(c2nc(-c3ccc(F)cc3)no2)CC1 | . | . | -29 | 98
O=C(Oc1ccccc1)C1C2CCCCC21 (stereo not given) | 123 | 95 | -9 | 105
CCN(CCCNC(=O)c1cc2c(=O)[nH]c3ccc(C)cc3c2s1)Cc1ccccc1 | 95 | 88 | -54 | 117
COc1ccc(-n2nc(C(=O)Nc3cccc(Cl)c3)c(=O)n(C)c2=O)cc1 | . | . | -57 | 102
Cc1cc(C(=O)Nc2cccc(C(F)(F)F)c2)c2c(C)nn(-c3cccc(F)c3)c2n1 | 65 | 81 | . | 101
Cc1ccc2n1CCn1cc(-c3ccccc3)cc1-2 | 101 | 89 | . | 166
Cc1ccccc1-c1nnc2sc(NC(=O)C(C)C)nn12 | 98 | 69 | -7 | 96
COc1cc(OC)cc(C(=O)Nc2nnc3n2CCS3)c1 | 100 | 81 | . | 99
CC(=O)c1ccc(NC(=O)c2cc3c(=O)oc4ccc(C)cc4c3s2)cc1 | 95 | 100 | -6 | 107
Cc1cccc(-c2noc(-c3ccccc3OCC(=O)Nc3nnc(C)s3)n2)c1 | . | . | -18 | 100
CC1(C)C2CCC1(C)C(NC(=O)CC[N+](C)(C)Cc1ccccc1)C2 (stereo not given) | 98 | 89 | . | 100
O=C(c1cnc2ccc(F)cc2c1S(=O)(=O)c1ccc(F)cc1)N1CCOCC1 | . | . | -23 | 106
CSc1nnc(C)c(=O)n1COC(=O)COc1ccccc1 | 103 | 87 | -3 | 106
CCOc1ccc(Br)cc1C1C(C(=O)OC)=C(N)Oc2cc(N(C)C)ccc21 (stereo not given) | 85 | 80 | . | 110
O=C(O)c1sccc1-n1cccc1 | . | . | 1 | 101
O=C(O)CCc1ccc(-c2cccs2)n1-c1ccccc1C(F)(F)F | 99 | 76 | . | 109
CCOC(=O)C1CCCN(CC(=O)N2CCCc3c2c(=O)oc2ccc(OCc4ccccc4)cc32)C1 (stereo not given) | 115 | 102 | -20 | 104
NC(=O)Nc1nc2ccccc2[nH]c1=O | 81 | 42 | . | 101
Cc1cccc(-c2noc(-c3nn(-c4ccccc4)c(=O)c4ccccc34)n2)c1 | . | . | -19 | 110
Cc1cc(C)n(CCCC(=O)O)c(=O)n1 | 91 | 76 | -26 | 100
COc1ccc(N(CC(=O)NCc2cccs2)S(=O)(=O)c2cccnc2)cc1 | 96 | 79 | -4 | 100

The list goes on.
SMILES | Sa growth inh | Sa growth inh second temp | HCMV NEC inh | GIV-Gai inh
CC(=O)N1c2ccc(S(=O)(=O)NCCC(=O)Nc3ccc(Br)c(C)c3)cc2CC1C (stereo not given) | 125 | 77 | . | 103
Cc1ccc(-c2nc3sc(CCNC(=O)c4ccc(F)c(F)c4)c(C)n3n2)cc1 | 122 | 87 | . | 97&102
Cc1c(C(=O)NCCc2ccccc2)cccc1-n1cnc2cccnc21 | 138 | 87 | . | 107
COc1cc2c(cc1OC)C1C(C(=O)NC3CCCC(C)C3C)c3ccccc3C(=O)N1CC2 (stereo not given) | 111 | 84 | . | 101
Cc1cc(C)cc(N(CC(=O)NC2CC2)S(=O)(=O)c2c(C)nn(C)c2C)c1 | . | . | -16 | 98
O=C(Nc1ccc(F)cc1)c1cc(N2CCN(c3ccc(F)cc3)CC2)nc2ccccc12 | 103 | 86 | . | 101
N#Cc1ccc(NC(=O)NCCc2c[nH]c3ccccc23)cc1 | 80 | 61 | -7 | 100
Cc1ccnc(N2C(=O)OC(C)(C)C2(C)O)c1 (stereo not given) | 90 | 88 | -3 | .
COc1ccc(C2CC(=O)C3=C(C2)Nc2onc(C)c2C3c2ccccc2)cc1OC (stereo not given) | . | . | -15 | 103
CCc1nc2ccccc2n1CCc1ccccc1 | 97 | 90 | -19 | 99
N#C/C(=C\N1CCC(C(F)(F)F)CC1)S(=O)(=O)c1ccccc1 | 93 | 88 | -28 | 105
Cc1nnc(Sc2nc(Sc3nnc(C)s3)nc(N3CCCCC3)n2)s1 | 109 | 96 | -14 | 97
NC(=O)Cc1ccccc1Br | 89 | 91 | 2 | 104
CC1Cn2cc(C(=O)Nc3cccc(C(F)(F)F)c3)c(=O)c3c(Cl)ccc(c32)O1 (stereo not given) | 120 | 100 | . | 107
Cc1cc(-n2c(C)cc(C(=O)CSc3ccc(S(=O)(=O)N(C)C)cn3)c2C)no1 | 96 | 99 | -2 | .
COC(=O)c1ccccc1NC(=O)c1sc2ncnc(N3CCCCC3C)c2c1C (stereo not given) | . | . | -7 | 96
O=S(=O)(c1ccc2c(c1)CCO2)N1CCCN(c2ccc(C(F)(F)F)cn2)CC1 | 111 | 92 | 29 | 103
CCc1nc2ccccc2c(N)c1C | 116 | 82 | 1 | .
NC(=O)Cn1c(=O)n(CCCCCC(=O)NCc2ccc3c(c2)OCO3)c(=O)c2sccc21 | 101 | 89 | -2 | 104
COc1ccc(S(=O)(=O)N(CC(=O)NCCSCc2ccc(Cl)cc2)c2ccc(C)cc2)cc1OC | . | . | -16 | 99
O=C(Cn1nnc(N2CCCC2)n1)c1ccc(Cl)cc1 | 104 | 76 | 5 | 99
O=P(CN(Cc1cccs1)CC1CCCO1)(c1ccccc1)c1ccccc1 (stereo not given) | 103 | 76 | . | 103
O=c1nc(Nc2ccccc2)[nH]c(=O)[nH]1 | 107 | 92 | -15 | .
Cc1ccc(CN2CCN(CC(=O)N3CCN(c4ccccn4)CC3)C(=O)C2=O)cc1 | . | . | -26 | 103
CCc1ccc(C2C(C#N)=C(N)N(N(C)C)C3=C2C(=O)CCC3)cc1 (stereo not given) | 98 | 85 | -23 | 103
Cc1nc2c3ccccc3nc(NNC(=O)CCC(=O)O)n2n1 | 103 | 90 | -14 | 96
Cc1cccn2cc(-c3cccc(NS(=O)(=O)c4ccc(Cl)cc4)c3)nc12 | 94 | 86 | . | 101

Of the compounds above, 10 contain two or more sulfur atoms.
SMILES | Sa growth inh | Sa growth inh second temp | HCMV NEC inh | GIV-Gai inh
CCN(CC)S(=O)(=O)c1ccc(C(=O)Nc2c3c(nn2-c2ccc(Cl)cc2)CSC3)cc1 | . | . | 17 | 108
CCOC(=O)N1CCN(C(=O)c2cccc(NC3=NC4CS(=O)(=O)CC4S3)c2)CC1 (stereo not given) | 107 | 100 | -6 | 111
CC(Oc1ccccc1)C(=O)Nc1nc2ccc(S(N)(=O)=O)cc2s1 (stereo not given) | 83 | 82 | . | 100
CCOC(=O)c1ccccc1NC(=O)CSc1ncc(S(=O)(=O)c2ccc(OC)c(Cl)c2)c(=O)[nH]1 | . | . | -26 | 107
COc1cc(Cl)c(C)cc1NS(=O)(=O)c1c(C)nc2sc3ccccc3n2c1=O | . | . | -22 | 111
COc1ccc(Cn2c(SCc3ccc(C(=O)NCc4cccs4)cc3)nc3ccncc32)cc1 | 109 | 97 | -7 | 96
COc1ccc(N(CC(=O)NCc2cccs2)S(=O)(=O)c2cccnc2)cc1 | 96 | 79 | -4 | 100
Cc1nnc(Sc2nc(Sc3nnc(C)s3)nc(N3CCCCC3)n2)s1 | 109 | 96 | -14 | 97
Cc1cc(-n2c(C)cc(C(=O)CSc3ccc(S(=O)(=O)N(C)C)cn3)c2C)no1 | 96 | 99 | -2 | .
COc1ccc(S(=O)(=O)N(CC(=O)NCCSCc2ccc(Cl)cc2)c2ccc(C)cc2)cc1OC | . | . | -16 | 99
